Compound activity (PubChem BioAssay)
HPGD block: HPGD (human) dehydrogenase inhibition | P15428 | AID 894 | purified HPGD, NADH fluorescence kinetic, PGE2 substrate | 4.3% of 150,000 active | Potency, µM, inactives show top-dose activity change, negative = inhibition, usual class: inhibitors; active = well fitted inhibition curve with a large enough effect (not every such curve was filed as active); inconclusive = small, poorly fitted or top-dose-only effect, or another doubt; inactive = no such curve, though single readings can be large or run the other way;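 note: top concentration of the series not given in the record; plate controls included wells without enzyme; inactives centre near -10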
Target sequence (P15428 whole entry, looked up): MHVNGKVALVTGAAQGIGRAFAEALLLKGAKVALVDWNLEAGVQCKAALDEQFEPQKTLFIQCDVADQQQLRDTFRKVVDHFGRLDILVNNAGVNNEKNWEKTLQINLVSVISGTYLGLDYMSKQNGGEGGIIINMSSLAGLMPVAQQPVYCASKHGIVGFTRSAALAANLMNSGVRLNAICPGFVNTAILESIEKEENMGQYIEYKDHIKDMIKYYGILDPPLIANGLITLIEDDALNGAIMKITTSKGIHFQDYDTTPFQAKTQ
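NADH formation kinetics: reaction with 30 uM PGE2 and 1 mM NAD+ (final), 20 nM enzyme, Tris-HCl pH 8 with Tween 20, after 15 min compound preincubation at room temperature. Fluorescence change, last versus first of five reads.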
* marks the source's active call; other numbers are inactive results; & = joins results of further samples; [ ] = another dose, or the depositor's remark. % is set by controls: 0 for no effect and ±100 for the full control effect; potency is the fitted concentration of half-maximal effect. The list is partial; rates above refer to the full screens.

What do the screens show for `O=C(NC1CCCCC1)C(c1cccs1)N(C(=O)Cc1c[nH]c2ccccc12)c1ccc(F)cc1` (centres undefined)?
HPGD block: -3%

What do the screens show for `O=C(CSc1nnc(-c2ccncc2)o1)NCc1ccccc1Cl`?
HPGD block: -8%

Results for Nc1ccccc1OCP(=O)(c1ccccc1)c1ccccc1 ?
HPGD block: -12%

Results for Nc1c(Br)cc(Br)c(N2CCCC2=O)c1Br ?
HPGD block: -2%

What do the screens show for `CC(=O)Nc1ccc(S(=O)(=O)N2C3CCCC2CC(NC(=O)C2CCCCC2)C3)cc1` (centres undefined)?
HPGD block: -4%

Results for CCN(CC)c1ncnc2c1[nH]c1ccccc12 ?
HPGD block: -6%

What do the screens show for `COc1ccc(CN2CC(C(=O)NCCc3ccc(C)cc3)CC2=O)cc1` (centres undefined)?
HPGD block: -15%

How did CC(=O)NC(CCS(C)(=O)=O)C(=O)Nc1nc(C)cs1 (centres undefined) do in these assays?
HPGD block: 2%

Results for COc1ccc(/C=C/C(=O)NCc2c(C)nn(C)c2C)cc1COc1ccc(Br)cc1 ?
HPGD block: -4%

What do the screens show for `O=C(Nc1ccc(N2C(=O)C3C4C=CC(C4)C3C2=O)cc1)Nc1cccnc1` (centres undefined)?
HPGD block: 18µM*

What do the screens show for `CCOc1cc(CNCc2cccs2)ccc1OCC(=O)NC(C)(C)C`?
HPGD block: -8%

How did O=C(O)c1ccccc1COc1ccccc1Cl do in these assays?
HPGD block: -18%

What do the screens show for `CC1(CCc2ccccc2)NC(=S)N(c2ccc(Cl)cc2)N1` (centres undefined)?
HPGD block: 1µM*

Results for CCC1SC2=NC(C)=C(C(=O)OC)C(c3ccc(C(=O)OC)cc3)N2C1=O (centres undefined) ?
HPGD block: -8%

How did CCOC(=O)c1c(NC(=O)c2cccs2)sc2c1CCN(C(=O)OCC)C2 do in these assays?
HPGD block: inconclusive

How did Cc1cccc(-n2c(-c3csc(C(C)C)c3)n[nH]c2=S)c1 do in these assays?
HPGD block: inconclusive

How did CC1(C)Oc2nc3ccccc3n2/C1=C\C#N do in these assays?
HPGD block: -11%

What do the screens show for `Cc1ccc(/C=C(\C#N)c2nn(-c3ccccc3)c(N)c2C#N)cc1`?
HPGD block: inconclusive

Results for Cc1cccc(/C(N)=N/OC(=O)c2ccc3c(c2)OCO3)c1 ?
HPGD block: -17%

Results for CCCNC(=O)C1CCN(S(=O)(=O)c2c(C)noc2/C=C\c2ccc(OC)cc2)CC1 ?
HPGD block: 130%[activator]

What do the screens show for `CCn1ncc(/C=N\NC(=O)COc2cc(C)cc(C)c2)c1C`?
HPGD block: -4%

How did O=S(=O)(N/N=C\c1c(F)cccc1Cl)c1ccc(Cl)cc1 do in these assays?
HPGD block: inconclusive

What do the screens show for `CC(C)c1ccccc1NC(=O)CCc1nc2ccccc2s1`?
HPGD block: -17%

How did Cc1ccccc1C(=O)NNC(=S)NC(=O)c1ccccc1 do in these assays?
HPGD block: -22%

How did COCC(=O)N1CCC2(CC1)CN(Cc1cc(C(F)(F)F)cc(C(F)(F)F)c1)C2 do in these assays?
HPGD block: -12%

How did COC(=O)c1cccc(C#CC(NP(=O)(c2ccccc2)c2ccccc2)c2ccccc2)c1 (centres undefined) do in these assays?
HPGD block: -12%

How did O=C(O)c1ccc(-c2ccccc2Cl)o1 do in these assays?
HPGD block: -22%&-17%

What do the screens show for `Cc1cc(C(C)(C)C)oc1C(=O)N(CC(=O)NC1CCCC1)c1ccc(F)cc1`?
HPGD block: -15%

How did Cc1ccc(C(=O)CSc2nnc(-c3ccccc3)n2-c2ccccc2)o1 do in these assays?
HPGD block: -14%

Results for COC(=O)c1cccc(C23CC4(C2)[C@H](CN(C)[C@@H]4c2ccccc2)C3c2ccc(C(F)(F)F)cc2)c1 (some centres undefined) ?
HPGD block: -10%

What do the screens show for `CC(NC(=O)c1ccccc1NC(=O)c1ccco1)C(=O)O` (centres undefined)?
HPGD block: -10%

Results for CCOC(=O)CC(=O)CSc1[nH]c(=O)cc(C)c1C#N ?
HPGD block: 14µM*

Results for O=C(Cc1ccccc1)N/N=C/C=C/c1cccc([N+](=O)[O-])c1 ?
HPGD block: -5%

What do the screens show for `CC(=O)Nc1ccc(NC(=O)CSCCc2ccccn2)cc1`?
HPGD block: -15%

What do the screens show for `Cc1nn(-c2ccccc2)c2sc(C(=O)OCN3C(=O)c4ccccc4C3=O)cc12`?
HPGD block: -12%

How did CCCCc1ccc(/C=C2\C(=O)ON=C2c2ccccc2)s1 do in these assays?
HPGD block: -6%

Next part; it opens with the 3 that closed the last part.
What do the screens show for `CC(=O)Nc1ccc(NC(=O)CSCCc2ccccn2)cc1`?
HPGD block: -15%

What do the screens show for `Cc1nn(-c2ccccc2)c2sc(C(=O)OCN3C(=O)c4ccccc4C3=O)cc12`?
HPGD block: -12%

How did CCCCc1ccc(/C=C2\C(=O)ON=C2c2ccccc2)s1 do in these assays?
HPGD block: -6%

Results for CCOc1ccc(C(F)(F)F)cc1NC(=O)c1ccc(OC)c([N+](=O)[O-])c1 ?
HPGD block: -4%

What do the screens show for `O=C(CSc1nc2ccccc2n1S(=O)(=O)c1cccc([N+](=O)[O-])c1)NCCc1ccccc1`?
HPGD block: inconclusive

What do the screens show for `COc1cc(OC)cc(-c2nc3ccccc3c(=O)n2OC(=O)c2ccc(Br)cc2)c1`?
HPGD block: -16%

How did CCOC(=O)C1CCN(c2c(NCCCN(CC)Cc3ccccc3)c(=O)c2=O)CC1 do in these assays?
HPGD block: -9%

How did C=CCN1C(=O)OC2(CCCCC2)C1(C)O (centres undefined) do in these assays?
HPGD block: -19%

What do the screens show for `COCc1nnc(NC(=O)c2ccco2)s1`?
HPGD block: -4%

What do the screens show for `CC(OC(=O)C1CCN(S(=O)(=O)c2ccccc2)CC1)C(=O)Nc1ncc(Cl)cc1Cl` (centres undefined)?
HPGD block: -11%

How did COc1ccc(N2CCN(S(=O)(=O)c3ccc(-n4cnnn4)c(C)c3)CC2)cc1 do in these assays?
HPGD block: -9%

Results for CCCCOC(=O)c1[nH]c2c(c1C)C(=O)CC(c1cc(OC)c(OC)c(OC)c1)C2 (centres undefined) ?
HPGD block: -4%

How did CCOC(=O)c1oc2cc(O)cc(C)c2c(=O)c1-c1cscn1 do in these assays?
HPGD block: -2%

How did N#CNC1=NCN(Cc2ccccc2)CN1 do in these assays?
HPGD block: -11%

Results for COc1cccc(C(=O)N2N=C(c3cccc(OC)c3)CC2(O)C(F)(F)F)c1 (centres undefined) ?
HPGD block: 4%

Molecules shown so far that have bromine (3):
Results for Nc1c(Br)cc(Br)c(N2CCCC2=O)c1Br ?
HPGD block: -2%

Results for COc1ccc(/C=C/C(=O)NCc2c(C)nn(C)c2C)cc1COc1ccc(Br)cc1 ?
HPGD block: -4%

What do the screens show for `COc1cc(OC)cc(-c2nc3ccccc3c(=O)n2OC(=O)c2ccc(Br)cc2)c1`?
HPGD block: -16%

Next section.
What do the screens show for `CCOC(=O)N1CCN(C(=O)CCNS(=O)(=O)c2cc(Br)cnc2N)CC1`?
HPGD block: -11%

Results for COc1ccc(-c2nnc(SCC(=O)NCCc3ccccc3)o2)cc1 ?
HPGD block: -11%

Results for O=C(Nc1ccc(S(=O)(=O)N2CCCCC2)cc1)c1ccccc1Cl ?
HPGD block: 0%

What do the screens show for `O=C(O)c1ccccc1C(c1ccc(O)cc1)c1ccc(O)cc1`?
HPGD block: 3%

What do the screens show for `CCCC(=O)N(C)c1nnc(-c2ccc(OC)cc2)s1`?
HPGD block: -17%

How did O=C(CN1CCN(S(=O)(=O)c2ccc(Br)cc2)CC1)N/N=C/c1ccc(Cl)c([N+](=O)[O-])c1 do in these assays?
HPGD block: -8%

Results for COc1ccc(C(C(=O)NC2CCCCC2)N(CC2CCCO2)C(=O)C2COc3ccccc3O2)cc1OC (centres undefined) ?
HPGD block: 3%

What do the screens show for `Cc1ccc(S(=O)(=O)NNC(=O)Nc2cccc3ccccc23)cc1`?
HPGD block: -5%

What do the screens show for `COc1ccc(COCC(O)CN2CCC(CN3C(=O)c4cccc5cccc(c45)C3=O)CC2)cc1OC` (centres undefined)?
HPGD block: -19%

How did CC(=O)c1cn(CCCCCCCCCCn2cc(C(C)=O)c(=O)[nH]c2=O)c(=O)[nH]c1=O do in these assays?
HPGD block: -4%

What do the screens show for `Cc1nc2ccccn2c1/C(O)=C1\C(=O)C(=O)N(CCN2CCOCC2)C1c1ccncc1` (centres undefined)?
HPGD block: inconclusive

What do the screens show for `CCOc1ccc(C(CCc2ccccc2)NC(=O)c2ccccc2F)cc1OCC` (centres undefined)?
HPGD block: -12%

Results for COc1ccc(CC(=O)NC(c2ccccc2)c2ccccc2)cc1S(=O)(=O)N1CCOCC1 ?
HPGD block: -8%

Results for COc1ccc2c(c1OC)C(=O)OC2Nc1nc(-c2cc3cc([N+](=O)[O-])ccc3oc2=O)cs1 (centres undefined) ?
HPGD block: -18%

Results for CCCCCc1c(C)nc(SCC(=O)O)[nH]c1=O ?
HPGD block: -16%

Results for O=C(CSc1nc(-c2cccs2)cc(C(F)(F)F)n1)NCc1ccccc1 ?
HPGD block: -18%

How did Cc1ccc([N+](=O)[O-])cc1S(=O)(=O)NCCc1c(C)[nH]c2ccccc12 do in these assays?
HPGD block: -15%

Results for Cc1ccc(/C=N/N=C/c2ccc(C)s2)s1 ?
HPGD block: -12%

How did COc1ccc2cc(CCNC(=O)CC(C)(C)C)c(=O)[nH]c2c1 do in these assays?
HPGD block: -22%

Results for CCCC(=O)NC(=S)Nc1ccccc1F ?
HPGD block: -12%

How did CCOC(=O)c1cc(NC(=O)Nc2nccs2)c(C)nc1C do in these assays?
HPGD block: -10%

What do the screens show for `O=C(C1CCCN(S(=O)(=O)c2cccc3nonc23)C1)N1CCN(c2cccc(Cl)c2)CC1` (centres undefined)?
HPGD block: -8%

How did CCOC(=O)c1c(NC(=O)C2=C(C)NC(=S)NC2c2ccc(CC)cc2)sc(C)c1C (centres undefined) do in these assays?
HPGD block: inconclusive

What do the screens show for `CCCCC/C=C\C/C=C\C/C=C\CCCCCCC(=O)NCCCC(=O)O`?
HPGD block: 3%

Sorted by length of the SMILES (highest first): part of the list above.
What do the screens show for `O=C(C1CCCN(S(=O)(=O)c2cccc3nonc23)C1)N1CCN(c2cccc(Cl)c2)CC1` (centres undefined)?
HPGD block: -8%

How did CCOC(=O)c1oc2cc(O)cc(C)c2c(=O)c1-c1cscn1 do in these assays?
HPGD block: -2%

What do the screens show for `CC(=O)Nc1ccc(NC(=O)CSCCc2ccccn2)cc1`?
HPGD block: -15%

Results for Nc1ccccc1OCP(=O)(c1ccccc1)c1ccccc1 ?
HPGD block: -12%

Results for CCCCCc1c(C)nc(SCC(=O)O)[nH]c1=O ?
HPGD block: -16%

The listing continues.
Results for C=CCNc1nc(Cl)nc(Nc2ccc(OC)cc2)n1 ?
HPGD block: 2%

Results for COc1ccc(N2C(=O)CC(NCCNc3ccc([N+](=O)[O-])cn3)C2=O)cc1 (centres undefined) ?
HPGD block: -16%

Results for Clc1ccc2oc(-c3cccnc3NCc3ccccc3)nc2c1 ?
HPGD block: inconclusive

How did O=C(O)C(c1ccccc1)N1CCCC1 (centres undefined) do in these assays?
HPGD block: -12%

What do the screens show for `Cn1c2ccccc2c(=O)c2c(=O)n(C3CCCCC3)c(-c3cccs3)nc21`?
HPGD block: -16%

What do the screens show for `O=S(=O)(c1ccccc1)N(CC(O)CN1CCCCC1)c1ccccc1` (centres undefined)?
HPGD block: -7%

What do the screens show for `CC1CCN(CCNC(=O)CCS(=O)(=O)c2ccc(Br)cc2)CC1`?
HPGD block: 8%

Results for COC(=O)c1sc(S(=O)(=O)N2CCN(c3ccccc3)CC2)c(C(=O)OC)c1C ?
HPGD block: -9%

Results for Cc1cc(C)cc(C(=O)OCC(=O)Nc2cccc(S(=O)(=O)NC3=NCCCCC3)c2)c1 ?
HPGD block: -8%

Results for COc1cccc2cc(-c3nnc(SCC(=O)Nc4nc(C)cs4)n3C)oc12 ?
HPGD block: -30%

Results for Cc1cc(NC(=O)COC(=O)c2ccc(S(=O)(=O)N3CCCc4ccccc43)cc2)no1 ?
HPGD block: -7%

What do the screens show for `CN(C)C(=O)C1OC(C)(C)OC1C(=O)N(C)C` (centres undefined)?
HPGD block: 0%

Results for CC(C)CCNC(=O)c1c[nH]c2ccc(S(=O)(=O)N3CCC4(CC3)OCCO4)cc2c1=O ?
HPGD block: -16%

How did NC(=O)c1ccc(Oc2ccc(Cl)c3ccccc23)c([N+](=O)[O-])c1 do in these assays?
HPGD block: -5%

What do the screens show for `Cc1nn(-c2ccccc2C(=O)O)c(=O)c2ccccc12`?
HPGD block: -6%

Results for COc1ccc(CCNC(=O)c2cc(-c3ccc(C)cc3O)n[nH]2)cc1OC ?
HPGD block: -8%

How did COc1ccc2c(c1)C(=O)[C@@H](OC(=O)Nc1cc(OC)c(OC)c(OC)c1)[C@H](c1ccc(OC)c(Br)c1)O2 do in these assays?
HPGD block: -4%

How did CCOC(=O)Cn1c(C(=O)OCC)cc2sccc21 do in these assays?
HPGD block: -7%

How did Cc1nc2ccc(S(=O)(=O)NC(C(=O)NCc3ccco3)C(C)C)cc2s1 (centres undefined) do in these assays?
HPGD block: -18%

What do the screens show for `CCOC(=O)C(C(=O)Nc1nccs1)C1CCCCC1` (centres undefined)?
HPGD block: 1%

What do the screens show for `Nc1nc2nonc2nc1N1CCCCC1`?
HPGD block: -6%

What do the screens show for `Cc1nc(NC(=O)c2ccco2)sc1-c1csc(Nc2ccc(Cl)cc2Cl)n1`?
HPGD block: inconclusive

How did O=C(CNC(=O)c1ccccc1)NCCc1nc2ccccc2[nH]1 do in these assays?
HPGD block: -6%

How did CCOC(=O)c1c(CN(CC)CC)oc2cc(Br)c(O)cc12 do in these assays?
HPGD block: -18%

Results for Cc1cccc(N=C2NC(=O)CS2)c1 ?
HPGD block: -13%
